Assay outcomes from PubChem.
Tgondii IFNg: T. gondii growth inhibition under IFN-gamma. Toxoplasma gondii growth in IFN-gamma-treated host cells; hits give low values; reference of the scale not given here. activity change, negative = inhibition, %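 (about 20 µM by stock and volumes)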. hit rate 3.8% among 69,000;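 active = below -70%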;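 also: host cells are HeLa cells infected with Toxoplasma gondii; parasite growth read as luciferase light; one replicate is shown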
Numbers without * were called inactive. An excerpt; rates above refer to the full screens.

Preview (5 entries):
SMILES	Tgondii IFNg
C[C@H]1CCCCO[C@H](CN(C)C(=O)Nc2ccc(C(F)(F)F)cc2)[C@@H](C)CN([C@@H](C)CO)C(=O)c2cc(NS(=O)(=O)c3cn(C)cn3)ccc2O1	89
COc1cccc2c1OCC(CN1CCCN(C(=O)c3ccco3)CC1)=C2	3
CCN(CC)C(=O)CSc1nnc2c(n1)[nH]c1ccc(C)cc12	4
O=c1nc(Nc2nc(=O)c3ccccc3s2)[nH]c(=O)[nH]1	-10
O=C(Cc1ccccn1)N1CCC(C(O)c2cccs2)CC1 (stereo not drawn)	33

This part in full, previewed entries included:
SMILES	Tgondii IFNg
C[C@H]1CCCCO[C@H](CN(C)C(=O)Nc2ccc(C(F)(F)F)cc2)[C@@H](C)CN([C@@H](C)CO)C(=O)c2cc(NS(=O)(=O)c3cn(C)cn3)ccc2O1	89
COc1cccc2c1OCC(CN1CCCN(C(=O)c3ccco3)CC1)=C2	3
CCN(CC)C(=O)CSc1nnc2c(n1)[nH]c1ccc(C)cc12	4
O=c1nc(Nc2nc(=O)c3ccccc3s2)[nH]c(=O)[nH]1	-10
O=C(Cc1ccccn1)N1CCC(C(O)c2cccs2)CC1 (stereo not drawn)	33
CCC1CN(CCNC(=O)c2cccc(C(=O)OC)c2)Cc2cc(OC)ccc2O1 (stereo not drawn)	-3
COc1cccc(S(=O)(=O)N(C)C[C@H]2OCc3ccccc3-c3c(n(C)c4ccccc34)C(=O)N([C@@H](C)CO)C[C@@H]2C)c1	-57
CCCC1c2ccsc2CCN1C(=O)Nc1ccc(Cl)cc1 (stereo not drawn)	-27

(further entries)
SMILES	Tgondii IFNg
COc1ccc2c(c1)NC1(CCN(C(=O)Nc3cccc(F)c3)CC1)c1cccn1-2	355
Cn1cc(CN2CCC3(CCC(=O)N3CC3CC3)CC2)cn1	8
COc1cncc(-c2ccc(F)c(CO)c2)c1	-2
Cc1nonc1CN(C)C(=O)c1cn(C/C=C/c2ccccc2)nn1	26
Cc1nc(CN2CCC3(CC2)NC(=O)CC3c2cnn(C)c2)cs1 (stereo not drawn)	-25
Cc1cc(C(F)(F)F)n2nc(C(=O)N3CCCC(c4ccn[nH]4)C3)cc2n1 (stereo not drawn)	10
Cc1cnc(C)c(N2CC[C@@H](N3CCN(CCc4ccccc4)CC3)[C@H](O)C2)n1	-6
O=C(C[C@@H]1CC[C@H](NC(=O)C2CCOCC2)[C@H](CO)O1)NCC1CCCCC1	-12

The listing continues:
SMILES	Tgondii IFNg
CCN1CC(C(=O)O)CN2CCN(Cc3csc(C)n3)CC2C1 (stereo not drawn)	61
CNC(=O)[C@@H]1C[C@@H](N)CN1C(=O)c1ccc(-c2ccc(OC)cc2)o1	-30
CCOCCC(=O)N1CCc2c(c(C(=O)O)nn2C)C1	11
COc1ccc(OC)c(CNC(=O)c2c(O)c3cccnc3[nH]c2=O)c1	97
COc1ccc(S(=O)(=O)Nc2cncc(C(=O)Nc3cccc(F)c3C)c2)cc1OC	53
CCOC(=O)c1sc(=S)n(-c2ccccc2)c1NC(C)=O	7
Cc1ccc(S(=O)(=O)N2CCC3(CC2)NCCN=C3NCc2ccc(F)c(Cl)c2)c(C)c1	-36
CCn1c(C2CCCN(C(=O)c3cc(C)c(C)n(C)c3=O)C2)nn(C)c1=O (stereo not drawn)	58

Later entries.
SMILES	Tgondii IFNg
CC1CCN(C(=O)CCNC(=O)[C@@H]2C[C@@H]3C=C[C@H]2C3)CC1	-5
COc1ccc(-c2nc(N3CCN(C4CCCCC4)CC3)c3ccccc3n2)cc1	-44
CCN(CC)C(=O)c1nc(-c2ccc(C)cc2)n2c1CCCCC2	-32
O=C(Nc1cccnc1)OCCN1CCOC1=O	8
CC(C)(C)OC(=O)N1CCC[C@H](C(=O)c2cccs2)C1	38
O=C(Nc1ccc(Cl)cc1Cl)N1CCCC1c1cccnc1 (stereo not drawn)	-14
COc1ccccc1-c1nn(-c2ccc(C(F)(F)F)cn2)c(=O)o1	-46
Cc1ccc(NC(=O)C[C@H]2CC[C@H]3[C@@H](COc4ccc(NC(=O)c5ccc(F)cc5)cc4C(=O)N3C)O2)cc1	40

(further entries)
SMILES	Tgondii IFNg
O=C(NC1CCCCC1)N1CCC2(CC1)Nc1cc(F)ccc1-n1cccc12	95
Cc1cccc(CN2CCC3(CC2)C(=O)N(C)C3c2ccccc2)n1 (stereo not drawn)	2
CCN1CC[C@@]2(CN(Cc3cnn(C)c3)C[C@H]2c2ccccc2)C1=O	-55
Cc1oc2c(F)c(F)c(F)c(F)c2c1C(N)=O	16
CC(C)CN1C(=O)N(Cc2ccccn2)C(=O)C12CCN(Cc1ccc(N3CCCC3)cc1)CC2	19
CN1CCC2(CCN(C(=O)c3ccccc3-c3ncn[nH]3)CC2)C1	-52
CCC(C)NCCOCCOc1ccc(Cl)cc1Br (stereo not drawn)	-37
Cc1ccc(NC(=O)c2nc(Nc3ccccc3)c3ccccc3n2)cc1Cl	20

4 entries from above, sorted by formula weight, falling:
SMILES	Tgondii IFNg
Cc1ccc(NC(=O)c2nc(Nc3ccccc3)c3ccccc3n2)cc1Cl	20
CCC(C)NCCOCCOc1ccc(Cl)cc1Br (stereo not drawn)	-37
CN1CCC2(CCN(C(=O)c3ccccc3-c3ncn[nH]3)CC2)C1	-52
Cc1oc2c(F)c(F)c(F)c(F)c2c1C(N)=O	16

The list goes on.
SMILES	Tgondii IFNg
C(=C(c1ccccc1)c1ccccc1)N1CCC1	1
CN(C)c1nc(-c2cnn(C)c2)nc2c1CN(Cc1cccs1)CC2	4
COc1cccc(S(=O)(=O)N2CCCCN3[C@@H](CO)[C@@H](c4ccc(C#CCC(C)C)cc4)[C@@H]3C2)c1	-64
CCN1C[C@H]2CN(C(=O)Cc3ccccc3)CCC[C@]2(C(=O)O)C1	-1
O=C1N[C@H](c2ccccc2)COCc2cn(nn2)CC[C@H]1Cc1ccc(C(F)(F)F)cc1	31
Cc1cc(C)cc(NC(=O)CC(=O)N2CCC3(CC2)C(=O)NCCN3C)c1	47
Cc1ccc2[nH]c(=O)c(-c3nc(-c4cccc(Br)c4)no3)c(O)c2c1	-30
Cc1ncnc(N2CCCC(CO)(Cc3ccc(F)cc3)C2)c1C (stereo not drawn)	-18

Later entries.
SMILES	Tgondii IFNg
C1=C(CN2CCOCC2)COc2c1cccc2OCC1CNCCO1 (stereo not drawn)	18
O=C(C1CC2(CCNCC2)CN1)N1CCC(Oc2ccccc2F)CC1 (stereo not drawn)	2
COc1ccc(C(=O)Nc2cc(C)cn(Cc3c(F)cccc3Cl)c2=O)cc1	-22
O=C(Nc1cc(F)ccc1F)N[C@@H]1CC[C@H](CCn2cc(C3CCCCC3)nn2)O[C@@H]1CO	-70
Fc1ccc(CSc2nnnn2-c2ccc3c(c2)OCO3)c(Cl)c1	-72*
CCn1c(C2CCCN(C(=O)c3cccc4cc(C)oc34)C2)nn(C)c1=O (stereo not drawn)	-2
COCC12CCCOC1CCN(c1cc(OC)ncn1)C2 (stereo not drawn)	21
CC(C)(C)OC(=O)N1CCCCCC1C1Cc2ccccc2C1=O (stereo not drawn)	-2

(continued)
SMILES	Tgondii IFNg
c1cncc(-c2nc3c(c(NCc4ccccc4-n4ccnc4)n2)CNC3)c1	11
CC(C)(O)C#Cc1ccc([C@H]2[C@@H](CO)N3CCCCN(S(C)(=O)=O)C[C@@H]23)cc1	5
Cc1cccc(CN2CCCN(S(=O)(=O)c3ccc(F)c(C)c3)CC2)n1	9
COCCN1CCN(C(=O)C2CC=CC2)Cc2cccnc21	-38
Cc1ccccc1-n1[nH]c(C)c(CC(=O)Nc2ccc3c(c2)NC(=O)C(C)O3)c1=O (stereo not drawn)	11
O=C(N1CCCCC1)C12CC3CC(CC(C3)C1)C2	18
O=C(Nc1ncc([N+](=O)[O-])s1)c1cccs1	358
Cn1nnnc1SCC(=O)N1CCc2ccccc2C1	3

Carrying on.
SMILES	Tgondii IFNg
Cc1c(C(=O)N(C)Cc2cnn(-c3ccccc3)c2)cnc2ccnn12	-3
COCC(=O)N1[C@H](CO)[C@@H](c2ccccc2C2=CCCC2)[C@@H]1C#N	-22
COc1ccc(Cl)cc1C(=O)Nc1ccc2c(c1)CCC(=O)N2C	44
Cc1nn(C)c2ncc(NC(=O)Nc3ccc(C(F)(F)F)cc3)c(Cl)c12	-61
CN1C(=O)c2cc(NS(=O)(=O)c3cccc(F)c3)ccc2OC[C@H]2O[C@@H](CC(=O)NCCN3CCCCC3)CC[C@@H]21	22
O=S(=O)(c1cccc(Cl)c1)N1CCC2(CC1)Nc1cc(F)ccc1-n1cccc12	5
COc1cccc(-c2ccccc2[C@@H]2[C@H](C#N)N(C(=O)Cc3ccccc3)[C@H]2CO)c1	-26
CNC[C@@H]1OCCCC[C@@H](C)Oc2ccc(NC(=O)Nc3ccc(OC)cc3)cc2C(=O)N([C@H](C)CO)C[C@H]1C	101

The listing continues:
SMILES	Tgondii IFNg
Cc1ccc(C(=O)N2CCc3ncnc(C4CC4)c3CC2)o1	-16
CC(c1cccnc1)N(C)Cc1nccn1C(C)C (stereo not drawn)	2
CC(=O)Nc1ccc(-c2cn(C(C)Cc3cnccn3)nn2)cc1 (stereo not drawn)	-29
CCc1nnc(NC(=O)c2ccc(S(=O)(=O)NCC(C)C)cc2)s1	-75*
COc1ccc(-c2nc(N3CCC(C)CC3)c3ccccc3n2)cc1	8
CCS(=O)(=O)N1[C@H](CO)[C@@H](c2ccc(C#Cc3ccccc3F)cc2)[C@@H]1C#N	-31
COC1C2CCC1N(C(=O)CCc1ccccc1)CCO2 (stereo not drawn)	2
O=C(CC(c1ccccc1)C1CCCCC1=O)c1ccco1 (stereo not drawn)	8

More compounds follow:
SMILES	Tgondii IFNg
COC(=O)c1sc(SC)c(S(=O)(=O)c2ccc(Cl)cc2)c1C	-6
COc1ccccc1-c1ccc([C@@H]2[C@@H](CO)N3CCCCN(C(=O)c4cccnc4)C[C@@H]23)cc1	-52
CCS(=O)(=O)N1CC2(C1)[C@@H](c1ccccc1)[C@@H](CO)N2C(=O)c1ccccc1	5
COc1cc(NCCNc2cccnc2)ncn1	12
COc1ccc(-c2noc(COc3cccc4[nH]ccc34)n2)c(OC)c1OC	44
CC(C)C(=O)N1CCCC2(CCCN2Cc2ccc(-c3ccccc3)cc2)C1 (stereo not drawn)	0
COCCO[C@@H]1C[C@@H]2CN(C(=O)c3cccn3C)CCN2C1	133
O=C(NCC1CCCCC1)[C@H]1[C@H](CO)[C@H]2Cn3c(cccc3=O)[C@@H]1N2C(=O)c1ccncc1	-16

(listing goes on)
SMILES	Tgondii IFNg
Cc1cc(CC(C)NC(=O)c2cccc3c2NCCC3)n[nH]1 (stereo not drawn)	-5
CN(C)C(=O)c1cccc(-c2ccc(C3[C@@H]4CN(C(=O)Cc5ccccc5)C[C@H]3N4)cc2)c1 (stereo partly drawn)	16
COCC1(C(=O)N2CCCC(Cc3ccc(C(=O)O)cc3)C2)CCC1 (stereo not drawn)	2
C[C@H]1CN([C@@H](C)CO)C(=O)CCCn2cc(nn2)CO[C@H]1CN(C)S(=O)(=O)c1ccc(-n2cccn2)cc1	23
COc1ccc(-c2cn(CC[C@@H]3CC[C@@H](NC(=O)c4cnccn4)[C@H](CO)O3)nn2)cc1	-14
CC(Cc1cnccn1)NC(=O)c1cc(-c2ccccc2)nn1C (stereo not drawn)	9
Cc1ccc2oc(CN(CCCO)Cc3sccc3C)c(C)c2c1	-33
Cc1cc(N2CCCC(Cn3cc(Cc4ccccc4)nn3)C2)nc(N)n1 (stereo not drawn)	-50

Going on with the list.
SMILES	Tgondii IFNg
N#Cc1cccc(CN2CCC3(CC(C(=O)NCc4ccco4)=NO3)C2)c1 (stereo not drawn)	-8
CCOC(=O)c1nc(N2CCN(c3cccc(C(F)(F)F)c3)CC2)c2ccccc2n1	2
CO[C@H]1CN(C)C(=O)c2ccc(NC(=O)Nc3cc(F)ccc3F)cc2OC[C@H](C)N(C(=O)c2ccccn2)C[C@@H]1C	15
COC(=O)[C@@H]1C[C@H](NC(=O)c2cccc3[nH]c(C)nc23)CN1C	4
O=C(Nc1ccnn1C1CCN(c2cnccn2)CC1)c1ccccc1Cl	-21
CCS(=O)(=O)N1CC2(CN(Cc3ccccc3F)[C@@H](CO)c3[nH]c4cc(OC)ccc4c32)C1	67
O=C(c1ccccn1)N1C[C@H]2[C@@H](c3ccccc31)[C@H](CO)N2C(=O)Nc1ccccc1Cl	-4
N#C[C@H]1[C@@H](c2ccccc2/C=C/c2ccccc2)[C@@H](CO)N1S(=O)(=O)c1cccc(F)c1	0

(more compounds)
SMILES	Tgondii IFNg
Fc1ccc(/C=C/CN2CCC(OCc3cccnc3)CC2)cc1	1
CC(C)c1nccn1CCCNC(=O)c1ccc(-c2cn[nH]c2)nc1	-2
COc1ccc(NC(=O)c2nc3c(n2C(C)C)CCN(C(=O)C2CC2)C3)cc1	63
CC1=C(C(=O)NCc2ccccc2F)C2(CCN(S(=O)(=O)c3cccs3)CC2)OC1=O	-11
COc1cccc(NC(=O)N2C[C@H](O)COC[C@H]3O[C@H](CC(=O)N(C)C)CC[C@@H]32)c1	12
CN1/C(=C\C=Nc2ccccc2)C(C)(C)c2ccccc21	34
CCOC(=O)c1[nH]c(=O)c2ccccc2c1O	8
CNC(=O)[C@@H]1C[C@@H](N)CN1C(=O)CSC12CC3CC(CC(C3)C1)C2	-4

Further results:
SMILES	Tgondii IFNg
Cc1ccc(CN2CC3CN(Cc4cccc(F)c4)CC3C2)s1 (stereo not drawn)	-55
CCN(CC)C(=O)Cn1cc(C(=O)C(C)C)c2ccccc21	4
CCN(CC)C(=O)CSc1nc2ccccc2o1	68
CCN1c2ccccc2[C@@H]2CN(CC(=O)O)CC[C@H]21	-2
Cc1ccc(-c2cnc3n2CCN(C)C32CCN(Cc3ccco3)CC2)cc1	-5
CSc1cccc(NC(=O)Nc2ccc(-c3nc(-c4ccccc4)co3)cc2)c1	68
